RE007 growth inh: less growth of the S. pombe RE007 Vpr strain; S. pombe RE007 Vpr strain, BacTiter-Glo ATP luminescence, 24 h; control for the full effect not named in the record; Potency, µM (series often up to 92.2 µM), for the others: at the highest dose activity change, negative = less growth; actives 0.21% (n = 360,000); AID 651644; active = well fitted falling curve with a large enough effect; inconclusive = small, poorly fitted or top-dose-only effect; inactive = no such curve, though single readings can be large or run the other way;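 also: nearly all actives have a fitted effect of over 50% in size; the assay follows cell death caused by Vpr and the record does not say whether a fall means rescue or toxicity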
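Fission yeast strain RE007, carrying one chromosomally integrated HIV-1 vpr copy, was seeded at OD 0.01 in PMG+AL medium with 23 nL pinned compound. After 24 h at 30 °C and 99% humidity, viability was read by BacTiter-Glo luminescence.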
StopGo reporter: lowers the luciferase signal of an FMDV 2A StopGo reporter; human cells with a luciferase reporter of 2A StopGo recoding; control for the full effect not named in the record; Potency, µM (doses to about 57.9 µM), without a hit: at the highest dose signal change, negative = less light; actives 1.2% (n = 410,000); active = well fitted falling curve with a large enough effect; inconclusive = small, poorly fitted or top-dose-only effect; inactive = no such curve, though single readings can be large or run the other way; tested in HEK293T cells; also: nearly all actives have a fitted effect of over 45% in size; luciferase light after 4 h
Active calls of the source: *; u = inconclusive; [ ] = remark or other dose. % is scaled to controls: 0 for no effect and ±100 for the full control effect; potency is read from the fitted curve at half-maximal effect.

Sequence of screens – RE007 growth inh	StopGo reporter
> CC(C)C[C@H]1COCCS(=O)(=O)N1Cc1cccc(Cl)c1
    -22.8%	0.0%
> CN(C)C(=O)c1cccc(-c2cnc3sc(NCc4ccc5c(c4)OCO5)nn23)c1
    17.8%	-10.2%
> COC(=O)[C@@H](Cc1ccccc1)NC(=O)CC[C@H]1O[C@@H](n2cc(C)c(=O)[nH]c2=O)C[C@@H]1O
    -3.4%	-18.1%
> COC(=O)c1ccccc1S(=O)(=O)N1CCC(C(=O)Nc2ccccc2N2CCOCC2)CC1
    12.0%	-12.2%
> Cc1ccc(-c2cnc(C(O)c3cccc(C)c3C)[nH]2)cc1 (stereo not given)
    -1.1%	0.5%
> O=C(Nc1ccc2c(c1)OCO2)c1cc(C2CCCN(C(=O)CCCc3ccccc3)C2)on1 (stereo not given)
    -0.1%	0.0%
> CC(CNC(=O)CC[C@H]1O[C@@H](n2cnc3c(NC(=O)c4ccccc4)ncnc32)[C@H](O)[C@@H]1O)c1ccccc1 (stereo not given in full)
    0.7%	-2.2%
> Cc1c(C(=O)NCc2cccc(C(F)(F)F)c2)sc(=O)n1Cc1cccc(F)c1
    -11.6%[18.4 µM]	0.0%
> CCC/C=C1/CCCOC(C(=O)NCc2cc(C)n(C)n2)(C(F)(F)F)C1 (stereo not given)
    -6.9%	30.1%[activator]
> Cc1ccc(S(=O)(=O)N2CCC(=O)N([C@H](CO)Cc3ccccc3)CC2)cc1
    -1.1%	-22.9%
> CCOC(=O)C1=CCC(c2ccc(N(CC)CC)cc2)N(S(=O)(=O)c2ccc(C)cc2)C1c1ccc([N+](=O)[O-])cc1 (stereo not given)
    2.7%	-17.2%
> COc1ccc(-c2nn(-c3ccccc3)cc2/C=C/C(=O)N(C)CC(=O)Nc2cccc(F)c2)cc1OC
    -7.8%	-23.9%
> CSc1ccc(Cn2c(C)c(C(=O)NCc3cccc(Cl)c3)sc2=O)cc1
    6.4%[18.4 µM]	-28.4%
> CS(=O)(=O)N1CCCCC1c1cc(C(=O)NCc2ccccc2)no1 (stereo not given)
    5.3%	10.1%
> COC(=O)C[C@H]1C=C[C@H](NC(=O)C2CCOCC2)[C@@H](CO)O1
    -2.9%	-12.4%
> COC(=O)C1=C(C(=O)OC)[C@]2([C@@H]3CC=CCN[C@@H](Cc4ccccc4)C(=O)N3Cc3ccccc3)C=C[C@H]1O2
    4.9%	-13.7%
> Cc1ccccc1CNC(=O)c1ccc2sc([C@H]3C[C@H](O)[C@@H](CO)O3)nc2c1
    3.6%[18.4 µM]	14.9%
> Cc1nn(-c2ccccc2)c(C)c1NC(=O)COc1ccccc1C#N
    0.6%	-4.6%
> O=C(Nc1ccc(F)cc1)Nc1nnc([C@H]2C[C@H](O)[C@@H](CO)O2)s1
    3.3%	31.0%[activator]
> O=C(CCn1c(=O)c2cccn2c2cccnc21)NCCCN1CCN(c2ccc(F)cc2)CC1
    -0.5%	-15.9%
> COc1ccc(CN(C)C[C@@H]2OCc3cnnn3CCCC(=O)N([C@@H](C)CO)C[C@H]2C)cc1
    8.7%	-5.7%
> CSc1ncccc1C(=O)N1CCC1(C)C(=O)NC(C)C (stereo not given)
    0.0%[18.4 µM]	-0.9%
> CCOC(=O)C1=NOC2(C1)C(=O)Nc1c(Cl)cccc12 (stereo not given)
    8.8%	-19.4%
> COc1ccc(CN2C(=O)C(CC(=O)NC3CC3)CC(C(=O)N(C)C)=C2C)cc1 (stereo not given)
    3.9%	-7.5%
> CC(=O)N1CCOc2ccc(S(=O)(=O)NC[C@H]3O[C@@H](n4ccc(=O)[nH]c4=O)[C@H](O)[C@@H]3O)cc21
    -17.3%	-11.3%
> COc1ccc(C2/C(=C(/O)c3ccc4c(c3)CC(C)O4)C(=O)C(=O)N2CCCn2ccnc2)cc1OC (stereo not given)
    0.5%	-10.9%
> CCCCc1c(-c2ccccc2OC)ncn1Cc1ccc(-c2ccccc2)cc1
    -0.6%	28.2µM*
> CCCCNC(=O)C1(C)CCC(=O)N1CCOc1ccccc1 (stereo not given)
    -15.0%	-20.4%
> CCOc1ccccc1-c1ccc2nccn2c1
    -0.1%	-26.1%
> O=C(O)c1ccccc1-c1c2cc(I)c(=O)c(I)c-2oc2c(I)c(O)c(I)cc12
    -11.8%[18.4 µM]	u
> CCc1ccc(S(=O)(=O)NCc2ccc(C(=O)NCCN(Cc3ccccc3)C(C)C)cc2)cc1
    -17.8%	u
> CC1(C(=O)Nc2cccc3c2CCCC3)CCN1C(=O)C1(c2ccc(Cl)cc2)CC1 (stereo not given)
    7.5%[18.4 µM]	-17.8%
> CCOC(=O)[C@]12CCC=C1N(Cc1ccccc1)C(=O)[C@H](CC(=O)NCc1ccc(C)o1)C2
    5.3%	1.0%
> COc1cccc(-c2cccc(-c3nc(C(=O)NCc4ccc5c(c4)OCO5)cc4c3[C@H](CCO)N(S(=O)C(C)(C)C)C4)c2)c1 (stereo not given in full)
    8.6%	-16.0%
> Fc1ccc(Nc2cncc(-c3ccsc3)c2)cc1Cl
    u	7.4%
> NC(c1csc(Nc2cc(NCCCO)ncn2)n1)c1ccccc1Cl (stereo not given)
    -13.3%[18.4 µM]	3.0%
> C=C[C@H]1[C@H](OC2OC(CO)C(O)C(O)C2O)OC=C(C(=O)OC)[C@H]1C[C@H]1CC(=O)C[C@H](CC(=O)CCc2ccc(O)cc2)O1 (stereo not given in full)
    -5.8%	-21.4%
> Cc1nc(C(F)(F)F)ccc1C(=O)N1CCC1(C)C(=O)NCc1cccs1 (stereo not given)
    24.3%	-20.4%
> COc1ccccc1CNc1nc(Nc2cccc(-c3cnco3)c2)c2sccc2n1
    -16.2%	u
> C[N+](C)(C)CCNC(=O)c1ccccc1
    4.6%	-14.4%
> COc1ccc(C(C)=O)cc1Cn1c(C)c(C(=O)NCc2ccc(C(C)C)cc2)sc1=O
    -2.2%[18.4 µM]	-28.9%
> Cc1nc(-[n+]2nc(-c3ccncc3)nn2-c2ccccc2)sc1C
    u	u
> Cc1noc(C)c1NC(=O)N(C)C[C@H]1OCc2cnnn2CCCC(=O)N([C@H](C)CO)C[C@@H]1C
    -5.2%	-12.2%
> CCCCn1nnnc1C(c1ccccc1)N1CCN(c2ccccc2OC)CC1 (stereo not given)
    3.0%	-12.3%
> CCOC(=O)C1=CCN(S(=O)(=O)c2ccc(C)cc2)C1c1cccc(Cl)c1 (stereo not given)
    9.5%	-28.6%
> COCCCNC(=O)C[C@@H]1C[C@@]2(C(=O)OC)CC(C)(C)CC=C2N(Cc2ccco2)C1=O
    10.4%	-17.2%
> O=c1nc(Oc2ccccc2)nc2ncccn12
    16.0%	u
> COc1cc(C(=O)OCC(=O)Nc2ccccc2)cc2c1OCCO2
    -4.8%	-16.2%
> CCCCCCN1C[C@@H](n2cc(C3CC3)nn2)[C@H](O)C[C@@H]1c1ccc(C)cc1
    -7.3%	2.6%
> Cc1ccc(CC(=O)Nc2cccc(C(=O)Nc3c(C)n(C)n(-c4ccccc4)c3=O)c2)cc1C
    5.2%	-8.8%
> C=C(C)c1sc(-c2ccc(Cl)cc2)nc1C
    -11.6%	59.2%[activator]
> CC(C)C[C@H]1CNC(=S)N1CC1CCN(CCC23CC4CC(CC(C4)C2)C3)CC1
    -12.9%	u
> CCCC(=O)N1CCCC1(C)C(=O)NCc1c(F)ccc(C)c1F (stereo not given)
    5.1%[18.4 µM]	-4.6%
> COc1cc(C(O)c2nc(-c3cccc(C(=O)O)c3)cs2)ccc1F (stereo not given)
    1.7%	7.2%
> C#CCN(C[C@H]1[C@H](OC(=O)NCc2ccccc2F)[C@H](OC(=O)NCc2ccccc2F)C[C@H]2C(=O)N(c3ccccc3)C(=O)[C@@H]12)S(=O)(=O)c1ccc(C)cc1
    8.9%	-22.0%
> CC(C)NC(=O)C1CC(=O)N(CCc2ccc(F)cc2)C1 (stereo not given)
    8.9%	0.0%
> CCN(CC)C(=O)C1=C(C)N(Cc2ccc(OC)cc2)C(=O)C(CC(=O)NCc2ccco2)C1 (stereo not given)
    0.4%	4.0%
> CCC(c1nnnn1Cc1ccccc1)N1CCC2(CC1)C(=O)NCN2c1ccccc1 (stereo not given)
    1.5%	-19.5%
> C[C@H](CO)N1C[C@H](C)[C@H](CN(C)S(=O)(=O)c2ccc(F)cc2)Oc2ncc(Br)cc2C1=O
    4.2%	19.7%
> CCOC(=O)N1CCN(C(=O)C[C@@H]2C[C@@]3(C(=O)OCC)CCCC=C3N(CCc3ccc(OC)c(OC)c3)C2=O)CC1
    -1.2%	0.0%

In the list so far, these have an aryl thioether with sulfur outside any ring:
Sequence of screens – RE007 growth inh	StopGo reporter
> CSc1ccc(Cn2c(C)c(C(=O)NCc3cccc(Cl)c3)sc2=O)cc1
    6.4%[18.4 µM]	-28.4%
> CSc1ncccc1C(=O)N1CCC1(C)C(=O)NC(C)C (stereo not given)
    0.0%[18.4 µM]	-0.9%

Going on with the list.
Sequence of screens – RE007 growth inh	StopGo reporter
> Cc1ccc(Nc2nc(NCc3ccccc3)nc3ccsc23)c(C)c1
    -28.5%	u
> CNc1ncnc2c1ncn2[C@H]1CN(Cc2cccnc2)C[C@@H](CO)O1
    0.4%	-16.4%
> O=C(OCc1ccccc1)N1CCC2CC1c1cc(N3Cc4ccccc4-n4nncc4C3)ccc12 (stereo not given)
    6.8%	42.0%[activator]
> CN1CCN(c2nc3cc(N4CCOCC4)ccc3s2)CC1
    41.3%	47.7%[activator]
> CC(C)C[C@H](NC(=O)OCC1c2ccccc2-c2ccccc21)C(=O)O
    -0.6%[18.4 µM]	14.8%
> Cc1cc(C)cc(CC(=O)N2CCC2(C)C(=O)NS(=O)(=O)c2ccccc2Cl)c1 (stereo not given)
    0.5%[18.4 µM]	-11.1%
> CCn1cc(CN2CCC(C(=O)Nc3ccc(Oc4ccccc4F)cc3)CC2)cn1
    -7.8%	u
> NC(CCc1ccccc1)c1csc(Nc2cnccn2)n1 (stereo not given)
    24.2%	-16.0%
> COc1ccc(CCNC(=O)CSc2nc3ccsc3c(=O)n2Cc2ccccn2)cc1OC
    4.1%	15.0%
> C=C[C@]1(C)C=C2C(=O)[C@@]3(O)OC(=O)[C@@]4(CCCC(C)(C)[C@H]34)[C@@]2(O)CC1
    -12.3%	2.82µM*
> COc1ccc([N+](=O)[O-])cc1N(CC(O)CN1C(=O)NC(C)(C)C1=O)S(=O)(=O)c1ccc(C)cc1 (stereo not given)
    1.6%	-8.4%
> CC1NS(=O)(=O)c2cc([N+](=O)[O-])ccc21 (stereo not given)
    2.7%	-14.0%
> COc1ccc(NC(=O)c2cc(-c3cc(F)ccc3OC)n[nH]2)cc1OC
    -13.3%	-3.7%
> COCCNC(=O)c1cc2c(c(-c3cccc(C#Cc4ccc(OC)c(OC)c4)c3)n1)[C@@H](CCO)N(S(=O)C(C)(C)C)C2 (stereo not given in full)
    -18.9%	-12.9%
> CCCCN1C(=O)C(CC(=O)NC2CCCCC2)CC(C(=O)N2CCOCC2)=C1C (stereo not given)
    1.3%	-18.6%
> C=CCOc1cccn2c(N(C)C(=O)c3ccc(OC)cc3)c(CC)nc12
    0.6%	-20.2%
> O=C(O)c1ccccc1-c1ccccc1C(=O)Nc1ccc2c(c1)oc(=O)c1ccccc12
    -22.8%	-23.4%
> CC(C)C(=O)N1CCC1(C)C(=O)Nc1ccccc1OC(F)F (stereo not given)
    7.7%	-14.4%
> O=c1[nH]c2cc3ccccc3cc2nc1-c1nnnn1Cc1ccccc1
    -3.6%	-27.9%
> COCCNc1nc(Nc2ccc(F)cc2)c2sccc2n1
    u	-26.8%
> CC1(C(=O)Nc2ccc(Cl)c(C(F)(F)F)c2)Cc2c(-c3cccc(C(N)=O)c3)ccnc2O1 (stereo not given)
    -1.2%[18.4 µM]	u
> CC1(C(=O)NS(=O)(=O)c2ccc(Cl)cc2)CCN1C(=O)c1cccc(F)c1 (stereo not given)
    -4.4%	-16.2%
> C#CCOc1ccc(CNC[C@H]2O[C@@H](n3ccc(N)nc3=O)[C@H](O)[C@@H]2O)cc1
    -1.5%	-3.1%
> O=C(c1cccc(Cl)c1)N1CCC(=O)N(C(CO)Cc2ccccc2)CC1 (stereo not given)
    0.9%	-1.5%
> O=C(c1ccccc1)N1CCCCC1
    -6.1%	-14.8%
> O=C(O)c1cc2ccc(O)cc2oc1=O
    6.9%	-5.0%
> CCOC(=O)c1cc2c(cn1)[C@@H](CCO)NC2
    16.4%	-11.5%
> CN1OC[C@@H]2CN[C@H](c3ccc(-c4cccc(F)c4)cc3)C[C@@H]21
    8.2%	33.2%[activator]
> COCCn1c(SCC(=O)N2CCCC2=O)nnc1-c1ccncc1
    13.6%	-0.2%
> CC1(C(=O)NS(=O)(=O)c2cccc(Cl)c2)CCN1C(=O)C1(c2ccc(Cl)cc2)CC1 (stereo not given)
    -2.5%[18.4 µM]	27.8%
> Cc1ccc(S(=O)(=O)N2CCN(C(=O)COC(=O)/C=C/c3ccc(OC(F)F)cc3)CC2)cc1
    8.3%	u
> C[C@H]1NS(=O)(=O)c2cc(Cl)ccc2O[C@@H]1c1ccccc1
    16.8%	-4.5%
> CC(=O)O[C@H]1CC[C@@]2(C)C(=CC[C@H]3[C@@H]4CC[C@H](C(C)=O)[C@@]4(C)CC[C@@H]32)C1
    2.0%	u
> CC(=O)NC(c1ccccc1)c1nc(-c2cccc(CO)c2)cs1 (stereo not given)
    2.6%	-15.8%
> CCCN(C)C[C@H]1Oc2ncc(Br)cc2C(=O)N([C@@H](C)CO)C[C@@H]1C
    3.9%	-16.1%

Screens (PubChem)

An excerpt; rates above refer to the full screens.
